CSC inhib = blocks cancer stem cells. cancer stem cell-like cells viability, luminescence. inhibition, % at 7.5 µM. hit rate 1.1% among 300,000. AID 2717;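 active = mean at 75% or more and at least half the replicates too; inconclusive = mean and replicates disagree; tested in HMLE shEcad cells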;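 note: 0% = median of negative and 100% = median of positive control wells; the first replicate is given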
PABP FP inh = blocks human PABP binding to poly(A) RNA; fluorescence polarization; inhibition, % at 35 µM; hit rate 1% among 290,000;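 active = 50% or more with normal probe brightness, or confirmed in later tests; inconclusive = above 50% with abnormal brightness, or retests that disagree; inactive = below 50% or failed in later tests; about a fifth of its hits are not listed in these tables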;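 note: calls also rest on retests at 20 µM and on dose response follow-up; controls were probe without protein and protein plus probe with vehicle; some compounds called inactive have numbers as strong as hits; many hits fall short of the cut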
Target sequence (P11940 whole entry, looked up): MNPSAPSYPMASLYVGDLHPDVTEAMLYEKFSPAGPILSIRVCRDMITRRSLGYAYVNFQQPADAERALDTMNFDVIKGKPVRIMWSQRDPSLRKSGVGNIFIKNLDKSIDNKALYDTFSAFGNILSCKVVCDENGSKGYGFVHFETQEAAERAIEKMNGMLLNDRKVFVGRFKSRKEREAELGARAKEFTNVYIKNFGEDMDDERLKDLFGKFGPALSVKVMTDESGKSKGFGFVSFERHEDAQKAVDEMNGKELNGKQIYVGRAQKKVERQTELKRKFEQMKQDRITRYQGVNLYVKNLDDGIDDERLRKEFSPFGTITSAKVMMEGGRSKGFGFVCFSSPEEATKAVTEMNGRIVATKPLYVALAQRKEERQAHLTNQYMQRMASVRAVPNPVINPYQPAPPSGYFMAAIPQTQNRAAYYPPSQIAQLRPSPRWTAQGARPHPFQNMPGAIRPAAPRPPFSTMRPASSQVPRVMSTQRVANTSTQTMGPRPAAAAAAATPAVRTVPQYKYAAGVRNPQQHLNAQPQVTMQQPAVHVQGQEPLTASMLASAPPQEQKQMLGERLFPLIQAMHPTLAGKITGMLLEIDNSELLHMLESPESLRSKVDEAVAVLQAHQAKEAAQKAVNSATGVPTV
UUG fidelity = yeast start codon fidelity modulation; AID 602363; S. cerevisiae UUG-firefly luciferase reporter, luminescence/redox ratio; activity score, % at 18.7 µM; hit rate 0.13% among 350,000;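 active = replicate mean at a twofold rise or more, about +100% in these data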;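 note: firefly luciferase made from a UUG start codon reports start codon fidelity; reporter light over untreated wells divided by growth signal over untreated wells; some hits fall short of that in this replicate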
MT1-MMP act inh = MT1-MMP (human) activation inhibition | hit rate 0.061% among 360,000 | HT1080 RFP-PRO-GFP cells, GFP/RFP ratio fluorescence, overnight; percent of plate control window, DMSO zero | AID 651647 | GFP/RFP ratio change, % at 20 µM | P50281;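 active = GFP/RFP ratio change of at least 30% with cell ATP level not reduced by more than half and red fluorescence within 50% of control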; note: strong numbers were not always called active
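system = RFP-PRO-GFP reporter HT1080 cells | dosing = 20 µM single dose, 1% DMSO | timing = overnight cell settling, then overnight compound exposure, 37 °C, 5% CO2 | read-out basis = GFP/RFP fluorescence ratio | controls = DMSO and RFP-L50D-GFP cell wells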
eIF4H inh = inhibitors of RNA binding by human eIF4H; Q15056; eIF4H fluorescence polarization binding assay; inhibition, % at 35 µM; hit rate 0.94% among 290,000;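 active = 50% or more with normal probe brightness, or confirmed in later tests; inconclusive = above 50% with abnormal brightness, or retests that disagree; inactive = below 50% or failed in later tests; about a fifth of its hits are not listed in these tables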;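 note: calls also rest on retests at 20 µM and on dose response follow-up; 0% = protein and probe with vehicle and 100% = probe without protein; strong numbers were not always called active; many hits fall short of the cut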
Env fusion inh = HIV envelope-mediated fusion inhibition | HeLa-JRFL Env/CEM21 cell fusion, luciferase | inhibition, % at 12.3 µM | hit rate 1.1% among 360,000 | AID 651610;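 active = mean replicate inhibition score of at least 50 and every replicate individually at or above 50; inconclusive = only one of the two criteria met; inactive = mean below 50 and not all replicates reaching 50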;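 note: 0% = plate neutral controls and 100% = maraviroc near 300 nM; one replicate is shown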
Rce1 inh = blocks yeast Ras-converting enzyme. yeast membranes, quenched prenylated peptide cleavage fluorescence. calls only. hit rate 0.27% among 290,000;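 active = fall in fluorescence gain of 50% or more versus controls, with final raw signal at or below 3038400; inconclusive = same 50% fall but final raw signal above 3038400; inactive = fall in fluorescence gain under 50%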;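 note: plate controls were neutral control wells for no effect and wells lacking membranes for full effect; tested at 10 µM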
eIF4H inh retest = further read-out of eIF4H inh, marked with its call; inhibition, %; compound at 20 µM; confirmation average;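 mean of two retest wells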
PABP FP inh retest = also measured in PABP FP inh; calls as there; inhibition, %; compound at 20 µM; confirmation repeats;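 mean of two retest wells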
MT1-MMP act inh RFP = recorded beside MT1-MMP act inh, whose call it bears; RFP signal change, %; measured here: RFP expression control read;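 0 = vehicle wells; hits needed this value within 50% of zero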
The depositor's hits bear a star; i = inactive; u = inconclusive; x = not tested or not shown; & = joins results of further samples.

SMILES	CSC inhib	PABP FP inh	UUG fidelity	MT1-MMP act inh	MT1-MMP act inh RFP	eIF4H inh	Env fusion inh	Rce1 inh	others
COc1cc(C(=O)NCC(=O)OCc2ccc(F)cc2)cc(OC)c1OC	-6	x	-3	4	3	x	6	x
O=C(c1cccnc1)N1CCc2ccccc21	-6	-6	-3	2	1	-1	5	i
Cc1nc(C)n(C(C)CNC(=O)c2ccco2)n1 (stereo not drawn)	-2	2	-13	4	3	-5	9	i
C=CCn1c(SCC(=O)NC2CCCCC2)nnc1C(C)NC(=O)c1cccs1 (stereo not drawn)	-12	-1	-7	4	3	6	-15	i
O=C(c1ccc(F)cc1)N1CCC(C(=O)N2CCN(S(=O)(=O)c3ccccc3Br)CC2)CC1	-10	x	6	-5	-8	x	-11	i
Cc1ccc(NC(=O)CN(C)CC(=O)Nc2cccc(F)c2)cc1S(=O)(=O)N1CCCCCC1	15	5	11	-4	-23	5	5	i
CCC(C(=O)OCC(=O)c1ccc2c(c1)NC(=O)CO2)c1ccccc1 (stereo not drawn)	15	5	0	1	-8	5	-4	i
Oc1ccc(N2CCN(C(c3cccs3)c3nnnn3CCc3ccccc3)CC2)cc1 (stereo not drawn)	67	3	-4	-11	-4	7	x	i
Cc1ccc(O)c(N)c1	2	x	-36	3	2	x	x	x
COc1ccc(CCNC(=S)Nc2cc(C)ccc2C)cc1	-11	-8	-26	5	1	-3	x	i
NC(=O)c1ccc(NC(=O)COC(=O)c2cc([N+](=O)[O-])ccc2N2CCOCC2)cc1	-11	x	x	3	-1	x	-3	i
O=C(NCCn1c(C(F)(F)F)nc2ccccc21)[C@H]1CCCN1c1nc(CN2CCCCC2)cs1	-4	-5	-6	1	3	-13	10	i
CCOc1ccc(N2C(=O)CC(NC3CCCCNC3=O)C2=O)cc1 (stereo not drawn)	-16	-9	3	0	4	-9	x	i
COc1ccccc1C(=O)COC(=O)c1cccs1	-12	x	1	10	11	x	u	x
COc1cccc(S(=O)(=O)N(C)C[C@@H]2OCc3cn(nn3)CCCC(=O)N([C@@H](C)CO)C[C@H]2C)c1	x	x	-16&10	-2	1	x	-11	x
COc1ncccc1C(=O)N1CCCC(N2CCN(c3ccc(F)cc3)CC2)C1 (stereo not drawn)	10	6	-20	-1	-1	-8	0	i
Cc1ccc(C23CC4CC(CC(C(=O)NN)(C4)C2)C3)cc1	-2	-4	-15	-1	3	-7	-13	i
Cn1nnnc1SCC(=O)Nc1nc2ccccc2s1	0	6	x	5	3	-5	-9	i
O=C1C=C(c2ccccc2)CC(c2cccs2)C1n1cnc([N+](=O)[O-])c1 (stereo not drawn)	x	-7	x	3	1	0	x	i
OCCC1CN(Cc2nc(-c3ccccc3)cs2)CCN1CCc1ccccc1 (stereo not drawn)	46	2	x	0	1	1	6	i
CCOC(=O)C1CCN(C(=O)c2ccccc2NS(=O)(=O)c2cc(C)ccc2C)CC1	0	-10	5	0	3	3	-5	i
COc1ccc(C2=NOC(C(=O)Nc3cccnc3)C2)cc1 (stereo not drawn)	-11	4	-1	1	-8	-4	31	i
CCOC(=O)/C(=N\Nc1ccccc1Cl)N1CC(C)OC(C)C1 (stereo not drawn)	16	17	-23	-14	-7	8	4	i
O=C(NC1CC1)C1=C[C@@H](c2ccc3c(c2)OCO3)C[C@@H](OCCCCO)O1	-3	1	-22	5	3	-3	-7	i
CC(=O)Nc1ccc(NC(=O)C(C)OC(=O)[C@@H]2CCCN2C(=O)c2cccs2)cc1 (stereo partly drawn)	20	x	-1	1	5	x	7	x
Other results follow.
SMILES	CSC inhib	PABP FP inh	UUG fidelity	MT1-MMP act inh	MT1-MMP act inh RFP	eIF4H inh	Env fusion inh	Rce1 inh	others
CCN(Cc1ccc(OC)c(F)c1)C(=O)C1CCCO1 (stereo not drawn)	-13	21	-35	2	-2	-2	1	i
COc1cccc(C(c2sc3nc(C)nn3c2O)N2CCN(c3ccccc3F)CC2)c1 (stereo not drawn)	-8	-6	-3	6	0	-8	x	i
CCc1noc(C)c1C(=O)N1CCN(S(=O)(=O)c2cc(C)ccc2C)CC1	-4	-5	5	0	3	-1	7	i
COc1ccc(N2C(=O)CC(N3CCN(C4CCc5ccccc5C4)CC3)C2=O)cc1 (stereo not drawn)	4	-2	x	2	2	-6	-19	i
CCCCNc1c(-c2ccc(-c3ccc(C(C)=O)cc3)c(OC)c2)nc2cnccn12	10	x	-20	-32	-13	x	x	i
COc1cc(NC(=O)CCc2nnc3ccc(N4CCOCC4)nn23)cc(OC)c1OC	-5	-5	-20	0	0	-1	-8	i
CC(OC(=O)C1=NN(c2ccccc2)C(=O)CC1)C(=O)NC1CCCCC1C (stereo not drawn)	1	x	-5	-2	2	x	x	x
CCOC(=O)C1(CCCc2ccccc2)CCN(C(=O)CCc2cnccn2)CC1	-11	-5	x	1	0	4	17	i
COc1ccc(NS(=O)(=O)c2cccc3nsnc23)cc1OC	6	2	x	7	-3	8	x	i
CCOC(=O)CNC(=O)c1sc(NC(=O)/C=C/c2ccccc2)nc1C	13	-6	-18	1	8	-6	4	i
CC(C)CN(C(=O)C1CCC1)c1c(N)n(Cc2ccccc2)c(=O)[nH]c1=O	-17	x	-13	2	2	x	10	x
COC(=O)c1ccccc1NC(=O)C1CC(c2ccccc2O)=NO1 (stereo not drawn)	x	-6	-2	12	-2	0	34	i
CCOc1cc(/C=C2\C(=O)N(c3ccc(C(N)=O)cc3)N=C2C)ccc1OC(=O)c1cccs1	-15	3	-1	1	2	-5	x	i
C[C@]12c3[nH]c4ccccc4c3CCN1C(=O)C(CC(=O)NCCc1ccccn1)C[C@@H]2C(=O)N1CCOCC1 (stereo partly drawn)	-6	x	-2	0	5	x	6	x
CC(Sc1ccccc1)C(=O)N(CCC#N)Cc1cccnc1 (stereo not drawn)	3	4	x	1	3	3	2	i
COC(=O)[C@]1(Cc2ccccc2)N[C@H](CN(C)C(=O)c2ccccc2)[C@@H]2C(=O)N(Cc3ccccc3)C(=O)[C@@H]21	-5	x	16	6	6	x	-54	x
c1ccc(-c2csc(NC3=NCCCCC3)n2)cc1	3	64*	-22	1	2	2.5*	4	x	eIF4H inh retest=94*;PABP FP inh retest=57*
OC(c1nnc(-c2ccccc2)o1)c1cccs1 (stereo not drawn)	-6	1	x	3	5	0	7	i
O=C(CCSc1ccccc1)Nc1ncccn1	-4	19	-9	6	4	4	x	i
CCOC(=O)c1ccccc1NC(=S)N1CC(C)CC(C)C1 (stereo not drawn)	7	-14	x	2	1	-9	8	i
Cc1ccc(/C=N/NC(=S)N2CCOCC2)cc1	25	-9	-27	0	3	-2	x	i
COc1ccc(Nc2nc(-c3ccc4c(c3)NC(=O)CO4)cs2)cc1	6	-6	x	7	-1	-1	-7	i
C/C(=N\NC(N)=S)c1cc(-c2ccccc2)c(-c2ccccc2)s1	99*	6	-15	-14	-13	-8	10	i
CCCS(=O)(=O)N1CCN(C2CCC(C)CC2)CC1 (stereo not drawn)	16	-6	-16	-3	4	12	-7	i
Cc1cc(C)cc(NC(=O)C2CCN(c3nc(C)cc(C)n3)CC2)c1	18	8	-18	-12	-2	-4	-13	i
The list goes on:
SMILES	CSC inhib	PABP FP inh	UUG fidelity	MT1-MMP act inh	MT1-MMP act inh RFP	eIF4H inh	Env fusion inh	Rce1 inh	others
Cc1ccc(CN2C(=O)C3CCCN3c3ncccc32)cc1 (stereo not drawn)	-12	-5	-8	-4	-5	6	19	i
Cc1cc(NCCCn2ccnc2)n2nc(C)c(-c3ccc(Cl)cc3)c2n1	125*	19	-10	4	-14	10	25	i
Oc1ccc(C[C@H]2CNCCN2CCc2cccc(F)c2)cc1	18	x	-14	0	3	x	-1	i
CC(C)[C@H](NC(=O)c1ccccc1F)C(=O)NCCc1ccccc1	11	3	-13	1	2	7	-20	i
CC(C)(C)c1ccc(S(=O)(=O)n2c(CN3CCOCC3)nc3ccccc32)cc1	1	3	x	1	2	19	-61	i
CCCCN1CC(O)=C(c2nc3ccccc3s2)C1=N	-1	5	-9	5	-3	7	-88	i
CCOC(=O)C1=C(C(=O)OCC)N(CC)CCC1=O	x	x	-9	1	3	x	11	x
O=C(O)CC1C(=O)NCCN1C/C=C/c1ccccc1 (stereo not drawn)	11	3	-3	2	10	-3	3	i
COC(=O)c1c(NC(=O)CCCC(=O)O)sc(C)c1C	x	-6	-2	-2	0	1	x	i
CCC(C(=O)NC1CCCCC1)n1nc(C)c2c(C)n(-c3ccccc3)nc2c1=O (stereo not drawn)	-6	7	0	4	-4	-8	1	i
Cc1ccc(C2NC(=O)NC(O)(C(F)(F)F)C2C(=O)c2ccccc2)o1 (stereo not drawn)	-13	-1	-8	4	4	-1	-1	i
CC(C)(C)N=C1NN=C(c2ccc(S(=O)(=O)N3CCCCC3)cc2)CS1	-2	x	x	-8	-12	x	-1	i
Cn1c(=O)c2c(O)c(C=Nc3ccc(F)cc3)c(=O)n(C)c2n(C)c1=O	1	7	x	x	x	-10	x	i
CC1CCN(CC(=O)Nc2cccc(Cl)c2)CC1	14	1	-14	0	-5	-4	14	i
O=C(CN1CCc2ccccc21)Nc1ccc2c(c1)OCCCO2	9	x	-4	6	1	x	-27	x
COC(=O)CCC(=O)OC1(C)C(=O)C2=CN(Cc3ccc(OC)cc3)C(c3ccc(OC)cc3)=CC2=C(Br)C1=O (stereo not drawn)	-2	x	-3	3	14	x	-16	i
Cc1ccc2nc(-c3cccc(NC(=O)c4ccc5c(c4)OCCO5)c3)oc2c1	-13	-2	-17	-1	1	-10	-58	i
Cc1cccc(-c2ccc(C=Nc3c(C)n(C)n(-c4ccccc4)c3=O)o2)c1	6	-2	-29	-1	3	-1	x	i
CC(C)(C)NC(=O)CN1C(=O)c2cccc3cccc1c23	x	x	-15	5	6	x	7	x
COc1cc(NC(=O)CCn2c(=O)oc3ccccc32)cc(OC)c1OC	-12	-2	-19	2	2	4	-1	i
c1cc(-c2cc3nc(NCC4CC4)ccn3n2)ccc1OCCN1CCOCC1	x	x	-16	9	-4	x	-29	x
CCn1c(SCC(=O)N2CCCC2)nc2ccccc21	13	0	x	-1	8	-18	-16	i
COc1ccc2nc(SCC(=O)Nc3ccccc3C#N)[nH]c2c1	-8	-12	-29	7	5	-5	x	i
O=C(CNC(=O)Cc1ccccc1)NCC(=O)N1CCN(C(c2ccccc2)c2ccccc2)CC1	-12	-9	9	-6	-4	-18	-18	i
O=C1CC(c2ccccc2)Cc2nc3ncnn3cc21 (stereo not drawn)	0	10	-16	-12	-7	-2	x	i
Cc1ccc(S(=O)(=O)Nc2cccc(C(=O)NCC(C)(C)N3CCOCC3)c2)cc1F	-8	x	-4	3	0	x	-6	i

Random excerpt: 5 entries already listed.
SMILES	CSC inhib	PABP FP inh	UUG fidelity	MT1-MMP act inh	MT1-MMP act inh RFP	eIF4H inh	Env fusion inh	Rce1 inh	others
CC(C)[C@H](NC(=O)c1ccccc1F)C(=O)NCCc1ccccc1	11	3	-13	1	2	7	-20	i
CC(C)(C)c1ccc(S(=O)(=O)n2c(CN3CCOCC3)nc3ccccc32)cc1	1	3	x	1	2	19	-61	i
CC(C)(C)NC(=O)CN1C(=O)c2cccc3cccc1c23	x	x	-15	5	6	x	7	x
CCOC(=O)C1=C(C(=O)OCC)N(CC)CCC1=O	x	x	-9	1	3	x	11	x
O=C(O)CC1C(=O)NCCN1C/C=C/c1ccccc1 (stereo not drawn)	11	3	-3	2	10	-3	3	i

Assay outcomes: PubChem BioAssay, several laboratories

Only part of the results is shown; count on the stated rates, not on these rows.
